From PubChem
FGF22 binding – binders of recombinant human FGF22 by thermal shift. Q9HCT0. AID 651658. SYPRO orange fluorescence; percent of sucrose octasulfate shift, DMSO zero. calls only at 9.99 µM. actives 1.5% (n = 340,000);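 active = melting point raised past a set limit in the mean and every replicate; three in four hits are not shown here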
Target sequence (Q9HCT0 whole entry, looked up): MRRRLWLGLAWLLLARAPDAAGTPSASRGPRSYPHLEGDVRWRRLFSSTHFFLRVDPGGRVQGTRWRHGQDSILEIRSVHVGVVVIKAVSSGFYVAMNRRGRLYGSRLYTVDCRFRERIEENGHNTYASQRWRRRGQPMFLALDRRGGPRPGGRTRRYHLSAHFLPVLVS
Calls only; i = inactive. Only part of the results is shown, so the mix of outcomes need not match the whole.

cpd	SMILES	FGF22 binding
1	C[C@H]1CN([C@@H](C)CO)C(=O)c2cccc(NS(=O)(=O)c3cn(C)cn3)c2O[C@H]1CN(C)S(=O)(=O)c1ccc(Cl)cc1	i
2	O=C(Nc1ccc2c(c1)OCO2)N[C@H]1CC[C@@H](CCNC(=O)C2CCOCC2)O[C@@H]1CO	i
3	COc1ccc(C#Cc2ccc3c(c2)O[C@H](CN(C)C(=O)CN2CCOCC2)[C@H](C)CN([C@H](C)CO)S3(=O)=O)cc1	i
4	C[C@@H]1CCCCO[C@H](CN(C)C(=O)C2CCCCC2)[C@@H](C)CN([C@H](C)CO)C(=O)c2cc(NC(=O)Nc3ccc(C(F)(F)F)cc3)ccc2O1	i
5	C[C@H](O)C#Cc1ccc2c(c1)O[C@H](CN(C)C(=O)C1CCC1)[C@@H](C)CN([C@H](C)CO)S2(=O)=O	i
6	Cc1ccc(S(=O)(=O)N[C@@H]2CC[C@@H](CCn3cc(-c4cccnc4)nn3)O[C@H]2CO)cc1	i
7	C[C@H](CO)N1C[C@H](C)[C@@H](CN(C)S(=O)(=O)c2cn(C)cn2)Oc2ccc(NS(=O)(=O)c3ccccc3)cc2CC1=O	i
8	CC(=O)N(C)C[C@@H]1Oc2ncc(C#CCC3CCCC3)cc2C(=O)N([C@H](C)CO)C[C@H]1C	i

The closing seven entries of the section before lead into the next.
cpd	SMILES	FGF22 binding
2	O=C(Nc1ccc2c(c1)OCO2)N[C@H]1CC[C@@H](CCNC(=O)C2CCOCC2)O[C@@H]1CO	i
3	COc1ccc(C#Cc2ccc3c(c2)O[C@H](CN(C)C(=O)CN2CCOCC2)[C@H](C)CN([C@H](C)CO)S3(=O)=O)cc1	i
4	C[C@@H]1CCCCO[C@H](CN(C)C(=O)C2CCCCC2)[C@@H](C)CN([C@H](C)CO)C(=O)c2cc(NC(=O)Nc3ccc(C(F)(F)F)cc3)ccc2O1	i
5	C[C@H](O)C#Cc1ccc2c(c1)O[C@H](CN(C)C(=O)C1CCC1)[C@@H](C)CN([C@H](C)CO)S2(=O)=O	i
6	Cc1ccc(S(=O)(=O)N[C@@H]2CC[C@@H](CCn3cc(-c4cccnc4)nn3)O[C@H]2CO)cc1	i
7	C[C@H](CO)N1C[C@H](C)[C@@H](CN(C)S(=O)(=O)c2cn(C)cn2)Oc2ccc(NS(=O)(=O)c3ccccc3)cc2CC1=O	i
8	CC(=O)N(C)C[C@@H]1Oc2ncc(C#CCC3CCCC3)cc2C(=O)N([C@H](C)CO)C[C@H]1C	i
9	Cc1cccc(-c2ccc([C@H]3[C@H](CO)N4CCCCN(C(=O)NC(C)C)C[C@@H]34)cc2)c1	i
10	CC(C)(C)c1ccc(N2C(=O)CS(=O)(=O)C2c2ccccc2)cc1 (stereo unspecified)	i
11	Cc1ccc(S(=O)(=O)N2CC[C@H]3[C@H](CO)Nc4ccc(-c5cccc(C(=O)N(C)C)c5)cc4[C@H]32)cc1	i
12	CCN1[C@H](C(=O)NC2CCCCC2)[C@@H](CO)[C@@H]2Cn3c(ccc(-c4cccnc4)c3=O)[C@@H]21	i
13	C[C@@H]1CN([C@@H](C)CO)C(=O)Cc2cc(NC(=O)Nc3cccc4ccccc34)ccc2O[C@@H]1CN(C)C(=O)Nc1ccc(F)cc1	i
14	COc1ccccc1CNC(=O)C[C@@H]1CC[C@@H]2[C@H](COC[C@H](O)CN2Cc2ccccc2)O1	i
15	COc1ccc(S(=O)(=O)Nc2ccc3c(c2)C(=O)N([C@H](C)CO)C[C@H](C)[C@@H](CN(C)S(=O)(=O)c2ccc(C)cc2)OCCCC[C@H](C)O3)cc1	i
16	CC(C)CC#Cc1cnc2c(c1)C(=O)N([C@H](C)CO)C[C@@H](C)[C@@H](CN(C)Cc1ccccc1F)O2	i
17	N#C[C@H]1[C@@H](c2ccc(C3=CCCCC3)cc2)[C@@H](CO)N1C(=O)C1CCOCC1	i
18	CO[C@H]1CN(C)C(=O)c2ccc(NC(=O)C3CCC3)cc2OC[C@H](C)NC[C@H]1C	i
19	COc1cccc(C(=O)Nc2ccc3c(c2)C(=O)N(C)C[C@@H](OC)[C@H](C)CN(C(=O)C2CCC2)[C@H](C)CO3)c1	i
20	CN(C)C(=O)[C@@H]1[C@@H](CO)[C@@H]2Cn3c(cccc3=O)[C@@H]2N1CC1CCCC1	i
21	O=c1c2ccccc2nnn1Cc1ccco1	i
22	C[C@H](CO)N1C[C@H](C)[C@@H](CN(C)Cc2cccc(C(=O)O)c2)Oc2ncc(C#CCN(C)C)cc2C1=O	i
23	CCS(=O)(=O)Nc1ccc2c(c1)C(=O)N(C)[C@H]1CC[C@H](CC(=O)N3CCOCC3)O[C@@H]1CO2	i
24	O=C(NCC[C@H]1CC[C@@H](NC(=O)C2CCCC2)[C@H](CO)O1)Nc1ccc(Cl)cc1	i
25	O=C(C[C@H]1CC[C@@H]2[C@H](COC[C@@H](O)CN2CC2CCCCC2)O1)NCc1ccc(Cl)cc1	i
26	C[C@H](CO)N1C[C@H](C)[C@H](CN(C)C)Oc2ccc(NS(=O)(=O)c3cccs3)cc2CC1=O	i
27	CN1c2ccc(-c3cccc(C#N)c3)cc2[C@H]2[C@H](CCN2C(=O)Cc2ccccn2)[C@H]1CO	i
28	COc1ccc(S(=O)(=O)N2CCCCN3[C@H](CO)[C@@H](c4ccc(-c5cccnc5)cc4)[C@@H]3C2)cc1	i
29	CN1CCCCN2[C@H](CO)[C@@H](c3ccc(-c4ccc(F)cc4)cc3)[C@@H]2C1	i
30	COc1cccc(CNC(=O)C[C@H]2C=C[C@@H](NC(=O)C3CCOCC3)[C@H](CO)O2)c1	i
31	CN(C)CC(=O)N1[C@@H]2Cn3c(ccc(C4=CCCC4)c3=O)[C@H]1[C@@H](C(=O)NCC1CC1)[C@@H]2CO	i
32	Cn1cnc(S(=O)(=O)N2CCCCN3[C@H](C2)[C@H](c2ccc(-c4ccc(F)cc4)cc2)[C@@H]3CO)c1	i
33	CCC(=O)N1CC2(C1)[C@H](c1ccccc1)[C@H](CO)N2C(=O)c1cccnc1	i
34	C[C@H](CO)N1C[C@H](C)[C@@H](CN(C)C)Oc2ccc(NC(=O)CCCN(C)C)cc2C1=O	i
35	CS(=O)(=O)N[C@@H]1C[C@@H]2O[C@H](CO)CC[C@@H]2O[C@@H]1CCc1ccc(/C=C/c2ccccc2)cc1	i
36	COc1ccc(CN(C)C[C@@H]2OCCCC[C@H](C)Oc3ccc(NS(=O)(=O)c4cn(C)cn4)cc3C(=O)N([C@H](C)CO)C[C@H]2C)cc1	i
37	C[C@H](CO)N1C[C@H](C)[C@@H](CN(C)CC2CCCC2)OCc2cnnn2CCCC1=O	i
38	COc1ccc(S(=O)(=O)Nc2ccc3c(c2)CC(=O)N([C@@H](C)CO)C[C@@H](C)[C@H](CN(C)S(C)(=O)=O)O3)cc1	i
39	C[C@@H]1CN([C@@H](C)CO)C(=O)c2cc(-c3cncnc3)cnc2O[C@H]1CN(C)C(=O)Cc1ccccc1	i
40	C[C@H]1CN([C@@H](C)CO)C(=O)c2cccc(NC(=O)C3CC3)c2O[C@H]1CN(C)Cc1ccc(C(=O)O)cc1	i
41	C[C@H](CO)N1C[C@H](C)[C@H](CN(C)C(=O)CN(C)C)Oc2cc(-c3ccc(C#N)cc3)ccc2S1(=O)=O	i
42	O=C(C[C@H]1C[C@H]2c3cc(NC(=O)c4ccc5c(c4)OCO5)ccc3O[C@H]2[C@@H](CO)O1)NCCc1ccccc1	i
43	CO[C@@H]1CN(C)C(=O)c2ccc(NC(=O)c3cccc(F)c3)cc2OC[C@@H](C)NC[C@H]1C	i
44	COc1ccc(S(=O)(=O)Nc2cccc3c2O[C@H](CN(C)C(=O)NC2CCCCC2)[C@H](C)CN([C@H](C)CO)C3=O)cc1	i
45	C[C@@H]1CN([C@H](C)CO)C(=O)c2cccc(NS(=O)(=O)c3cccs3)c2O[C@@H]1CN(C)S(=O)(=O)c1ccc(F)cc1	i
46	CCCC(=O)Nc1ccc2c(c1)OC[C@H](C)N(C(=O)c1cnccn1)C[C@@H](C)[C@H](OC)CN(C)C2=O	i
47	CCS(=O)(=O)N1CC2(CN(Cc3ccc(OC)cc3)[C@@H](CO)c3c2c2ccc(OC)cc2n3C)C1	i
48	COc1ccc(NC(=O)Nc2ccc3c(c2)C(=O)N([C@@H](C)CO)C[C@@H](C)[C@@H](CN(C)S(=O)(=O)c2ccc(F)cc2)OCCCC[C@H](C)O3)cc1	i
49	O=C(N[C@H]1CC[C@@H](CC(=O)N2CCOCC2)O[C@@H]1CO)c1ccccn1	i
50	CN(C)CCCNC(=O)C[C@H]1CC[C@@H]2[C@H](COc3ccc(NC(=O)c4cccc(F)c4)cc3C(=O)N2C)O1	i
51	C[C@H]1CN([C@@H](C)CO)C(=O)c2cccc(NC(=O)C3CC3)c2O[C@@H]1CN(C)S(=O)(=O)c1ccccc1	i
52	CC(=O)N(C)C[C@H]1Oc2ncc(C#Cc3cccnc3)cc2C(=O)N([C@@H](C)CO)C[C@H]1C	i
53	C[C@H](CO)N1C[C@H](C)[C@@H](CN(C)C(=O)Nc2ccccc2)Oc2ccc(NC(=O)Nc3ccc4c(c3)OCO4)cc2CC1=O	i
54	C[C@@H]1CN([C@H](C)CO)C(=O)c2cc(NC(=O)c3ccncc3)ccc2O[C@@H]1CN(C)S(=O)(=O)c1ccc(F)cc1	i
55	C[C@@H]1CN([C@H](C)CO)C(=O)Cc2cc(NC(=O)Cc3ccccc3)ccc2O[C@@H]1CN(C)Cc1ccc(C(=O)O)cc1	i
56	CCCNC(=O)N1[C@H](CO)[C@@H]2c3ccccc3N(C(=O)NC(C)C)C[C@@H]21	i
57	C[C@@H]1CN([C@H](C)CO)S(=O)(=O)c2ccc(C#CC(C)(C)O)cc2O[C@@H]1CN(C)C(=O)C1CCC1	i
58	CNC(=O)C[C@H]1CC[C@@H]2[C@H](COC[C@@H](O)CN2Cc2ccccc2F)O1	i
59	COc1ccc(S(=O)(=O)Nc2ccc3c(c2)CC(=O)N([C@@H](C)CO)C[C@H](C)[C@@H](CN(C)Cc2ccccc2)O3)cc1	i
60	CC(C)NC(=O)Nc1ccc2c(c1)C(=O)N([C@@H](C)CO)C[C@@H](C)[C@H](CN(C)S(=O)(=O)c1ccccc1)OCCCC[C@@H](C)O2	i
61	O=C(NCCc1ccncc1)[C@@H]1[C@@H](CO)[C@@H]2Cn3c(ccc(-c4ccc(F)cc4)c3=O)[C@H]1N2	i
62	CCCN1[C@H](C(=O)OC)[C@@H](CO)[C@@H]2Cn3c(ccc(-c4ccc(OC)cc4)c3=O)[C@@H]21	i
63	C[C@H]1CN([C@@H](C)CO)C(=O)Cc2cc(NC(=O)Nc3ccc(F)cc3)ccc2O[C@H]1CN(C)C(=O)Nc1ccc(C(F)(F)F)cc1	i
64	CCc1nc(N2[C@H](C#N)[C@@H](c3ccccc3-c3ccccc3F)[C@@H]2CO)sc1C	i

New compounds follow.
cpd	SMILES	FGF22 binding
65	CCNC(=O)[C@H]1[C@H](CO)[C@H]2Cn3c(ccc(-c4ccccc4F)c3=O)[C@@H]1N2C(=O)CC	i
66	CCNC(=O)[C@H]1[C@H](CO)[C@H]2Cn3c(ccc(-c4cccnc4)c3=O)[C@H]2N1Cc1ccccc1	i
67	CO[C@@H]1CN(C)C(=O)c2ccc(NS(=O)(=O)c3ccccc3C)cc2OC[C@@H](C)N(S(=O)(=O)c2ccccc2)C[C@H]1C	i
68	C[C@@H]1CN([C@H](C)CO)C(=O)c2c(c3ccccc3n2C)-c2ccccc2CO[C@@H]1CN(C)Cc1cccc(F)c1	i
69	C[C@H]1CN([C@@H](C)CO)C(=O)c2cccc(NC(=O)c3ccncc3)c2O[C@H]1CN(C)Cc1ccc(Oc2ccccc2)cc1	i
70	Cc1noc(C)c1NC(=O)Nc1ccc2c(c1)C(=O)N([C@H](C)CO)C[C@H](C)[C@H](CN(C)C(=O)Nc1ccccc1)OCCCC[C@@H](C)O2	i
71	C[C@H]1CN([C@@H](C)CO)C(=O)c2cc(NC(=O)Cc3ccccc3)ccc2O[C@H]1CN(C)S(C)(=O)=O	i
72	O=C(C[C@H]1CC[C@H]2[C@@H](COC[C@H](O)CN2Cc2nccs2)O1)N1CCC(Cc2ccccc2)CC1	i
73	O=S(=O)(NCC[C@H]1CC[C@H](NS(=O)(=O)c2ccccc2Cl)[C@H](CO)O1)c1ccc(Cl)cc1	i
74	COC(=O)[C@@H]1[C@@H](CO)[C@@H]2Cn3c(cccc3=O)[C@@H]2N1CC1CCCCC1	i
75	COc1ccc(S(=O)(=O)N(C)C[C@H]2Oc3ccc(NC(=O)CCCCCC(=O)Nc4ccccc4N)cc3C(=O)N([C@@H](C)CO)C[C@H]2C)cc1	i
76	COc1ccc2c3c([nH]c2c1)[C@H](CO)N(C(=O)C1CCC1)CC31CN(S(C)(=O)=O)C1	i
77	C[C@@H]1CN([C@@H](C)CO)C(=O)c2cccc(NS(=O)(=O)c3ccccc3)c2O[C@@H]1CN(C)S(=O)(=O)c1cccs1	i
78	CO[C@@H]1CN(C)C(=O)c2cc(NS(C)(=O)=O)ccc2OC[C@H](C)N(CC2CCCCC2)C[C@@H]1C	i
79	C[C@@H]1CCCCO[C@@H](CN(C)Cc2ccc3c(c2)OCO3)[C@@H](C)CN([C@H](C)CO)C(=O)c2cc(NC(=O)c3ccccc3)ccc2O1	i
80	COc1cccc(-c2ccc(C3[C@@H]4CN(C(=O)Cc5ccncc5)C[C@H]3N4)cc2)c1 (stereo partly specified)	i
81	Cc1ccc(S(=O)(=O)N[C@@H]2CC[C@H](CCNC(=O)C3CCC3)O[C@H]2CO)cc1	i
82	CO[C@H]1CN(C)C(=O)c2cc(NC(=O)C3CC3)ccc2OC[C@@H](C)N(C(=O)c2ccccc2F)C[C@@H]1C	i
83	CC(C)NC(=O)N(C)C[C@H]1Oc2cc(C3=CCCCC3)ccc2S(=O)(=O)N([C@H](C)CO)C[C@@H]1C	i
84	C[C@@H]1CN([C@H](C)CO)C(=O)Cc2cc(NC(=O)NC3CCCCC3)ccc2O[C@@H]1CN(C)Cc1ccc(Oc2ccccc2)cc1	i

Sorted by length of the SMILES (smallest number first): part of the list above
cpd	SMILES	FGF22 binding
81	Cc1ccc(S(=O)(=O)N[C@@H]2CC[C@H](CCNC(=O)C3CCC3)O[C@H]2CO)cc1	i
83	CC(C)NC(=O)N(C)C[C@H]1Oc2cc(C3=CCCCC3)ccc2S(=O)(=O)N([C@H](C)CO)C[C@@H]1C	i
79	C[C@@H]1CCCCO[C@@H](CN(C)Cc2ccc3c(c2)OCO3)[C@@H](C)CN([C@H](C)CO)C(=O)c2cc(NC(=O)c3ccccc3)ccc2O1	i
